Arbovirus anti – antivirals against arbovirus infection, primary screen, cell-based, full library, 10K replicate subset; arbovirus infection cell-based antiviral screen; inhibition, % at 10 µM; hit rate 0.37% among 200,000; AID 1251, 2008;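 active means inhibition from about 30%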;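 further: bluetongue infection of BSR cells; cell survival read as ATP light after 72 h; 0% = infected wells without compound and 100% = uninfected wells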
YopH inh – YopH tyrosine phosphatase inhibitors, primary screen, biochemical, fluorescence Ex485/Em525; inhibition, %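 (about 10 µM by stock and volumes)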; hit rate 0.16% among 140,000; YopH tyrosine phosphatase [Yersinia enterocolitica]; AID 898, 2007;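 active means inhibition of 50% or more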;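 further: controls were vehicle for no effect and minimum signal wells for full effect; inactives centre near -20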
RecA intein inh – Mtb RecA intein splicing inhibitors, primary screen, biochemical, fluorescence, HTS. Protein RecA (Mycobacterium tuberculosis (strain ATCC 25618 / H37Rv)), P9WHJ3. cell-free RecA intein splicing. inhibition, %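 (about 9 µM by stock and volumes)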. hit rate 0.75% among 290,000. AID 2221, 2009; in the data active means inhibition above about 30%; inconclusive means no clear call, values can overlap the other calls;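 further: 0% = vehicle wells and 100% = reference inhibitor control wells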
Target sequence (P9WHJ3 whole entry, looked up): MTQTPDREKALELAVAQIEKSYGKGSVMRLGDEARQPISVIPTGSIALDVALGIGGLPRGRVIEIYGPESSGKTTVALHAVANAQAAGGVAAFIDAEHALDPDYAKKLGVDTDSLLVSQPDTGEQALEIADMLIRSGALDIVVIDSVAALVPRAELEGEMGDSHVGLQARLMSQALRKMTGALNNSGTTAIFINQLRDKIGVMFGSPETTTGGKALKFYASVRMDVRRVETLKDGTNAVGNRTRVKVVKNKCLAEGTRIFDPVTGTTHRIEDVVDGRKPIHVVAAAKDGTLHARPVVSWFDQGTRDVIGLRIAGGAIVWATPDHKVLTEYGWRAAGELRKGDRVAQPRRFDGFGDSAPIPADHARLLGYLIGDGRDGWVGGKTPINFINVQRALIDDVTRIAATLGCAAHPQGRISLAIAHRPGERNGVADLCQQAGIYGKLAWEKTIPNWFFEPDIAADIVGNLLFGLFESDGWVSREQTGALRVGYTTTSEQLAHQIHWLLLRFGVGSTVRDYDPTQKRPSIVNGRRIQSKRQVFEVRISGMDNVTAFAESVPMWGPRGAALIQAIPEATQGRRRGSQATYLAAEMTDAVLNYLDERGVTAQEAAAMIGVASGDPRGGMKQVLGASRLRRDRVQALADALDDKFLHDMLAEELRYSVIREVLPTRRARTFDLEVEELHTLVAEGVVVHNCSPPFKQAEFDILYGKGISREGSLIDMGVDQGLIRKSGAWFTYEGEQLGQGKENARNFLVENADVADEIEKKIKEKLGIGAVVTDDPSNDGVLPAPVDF
Mtb betalactam – beta-lactam sensitization of Mtb H37Rv, H37Rv. M. tuberculosis H37Rv growth with meropenem, percent inhibition; hits of this screen are not shown here. inhibition, % at 25 µM. hit rate 0.27% among 330,000;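 active means about 74% or more and at least 40 points above the plate without the antibiotic, then above 30% in a dose series; inconclusive means first-round hits that could not be retested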;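 further: growth measured after seven days incubation then overnight dye step; 0% = bacteria only wells and 100% = bacteria with antibiotic; twin plates without the antibiotic show which effects depend on it; some results filed as inactive read as strong as hits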
Mtb growth – M. tuberculosis H37Rv growth inhibitors, H37Rv strain (AID 1626). M. tuberculosis H37Rv growth inhibition; higher % means a stronger effect. inhibition, % at 10 µM; hits with a dose series show IC50 in µM. hit rate 0.95% among 220,000;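 active means confirmed in a dose series; inconclusive means inhibition above 80% but not taken into the dose series; inactive means below 80% or under 30% at every dose of the series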;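 further: bacteria incubated seven days before Alamar blue readout; 0% = bacteria only wells and 100% = bacteria with antibiotic wells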
Arbovirus anti repeat – further read-out of Arbovirus anti, marked with its call; inhibition, %; measured here: 10K subset replicate screen; many hits read low in the repeat;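 first of two repeat runs on a subset; 0% = infected and 100% = uninfected wells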
Numbers without * were called inactive; ? = inconclusive; . = no result given. Only part of the results is shown; count on the stated rates, not on these rows.

SMILES	Arbovirus anti	YopH inh	RecA intein inh	Mtb betalactam	Mtb growth	others
CC1=NCCN1CCNC(=O)Nc1ccc(C(C)(C)C)cc1	.	.	0.1	-15	-4%
O=C(COc1cccc(C(F)(F)F)c1)NCC(c1ccco1)N1CCCCC1 (stereo not drawn)	.	.	0.0	0	.
Cc1cccc(CSCc2ccc(C(=O)NC3CCCC3)o2)c1	3	.	5.0	15	6%
COc1ccccc1NS(=O)(=O)c1cccc(C(=O)NC2CCN(Cc3ccccc3)CC2)c1	.	.	9.9	2	.
O=C(NCCc1ccncc1)Nc1ccccc1Cl	13	1	1.6	-5	-4%
Cc1sc2ncn(Cc3ccccc3F)c(=O)c2c1C	-8	.	5.3	0	11%
COc1ccccc1CNc1ncnc2nc[nH]c12	-1	-18	0.1	-1	2%
CS(=O)(=O)N1CCN(C(=O)c2cc(-c3cccnc3)nc3ccc(Br)cc23)CC1	-1	.	.	-2	2%
CC1CCCCN1C(=O)CSc1nnc(-c2cccnc2)n1C1CCCCC1 (stereo not drawn)	5	3	2.6	.	0%
CC1Cc2ccccc2N1CC(=O)Nc1cccc(S(N)(=O)=O)c1 (stereo not drawn)	19	.	-2.1	-2	-2%

Filtered by structure, those above with fluorine.
SMILES	Arbovirus anti	YopH inh	RecA intein inh	Mtb betalactam	Mtb growth	others
O=C(COc1cccc(C(F)(F)F)c1)NCC(c1ccco1)N1CCCCC1 (stereo not drawn)	.	.	0.0	0	.
Cc1sc2ncn(Cc3ccccc3F)c(=O)c2c1C	-8	.	5.3	0	11%

Quoted at random: 4 compounds from above, in no set order.
SMILES	Arbovirus anti	YopH inh	RecA intein inh	Mtb betalactam	Mtb growth	others
CC1Cc2ccccc2N1CC(=O)Nc1cccc(S(N)(=O)=O)c1 (stereo not drawn)	19	.	-2.1	-2	-2%
CS(=O)(=O)N1CCN(C(=O)c2cc(-c3cccnc3)nc3ccc(Br)cc23)CC1	-1	.	.	-2	2%
CC1=NCCN1CCNC(=O)Nc1ccc(C(C)(C)C)cc1	.	.	0.1	-15	-4%
COc1ccccc1CNc1ncnc2nc[nH]c12	-1	-18	0.1	-1	2%

Already shown: 5 of the compounds above.
SMILES	Arbovirus anti	YopH inh	RecA intein inh	Mtb betalactam	Mtb growth	others
CC1=NCCN1CCNC(=O)Nc1ccc(C(C)(C)C)cc1	.	.	0.1	-15	-4%
O=C(COc1cccc(C(F)(F)F)c1)NCC(c1ccco1)N1CCCCC1 (stereo not drawn)	.	.	0.0	0	.
Cc1cccc(CSCc2ccc(C(=O)NC3CCCC3)o2)c1	3	.	5.0	15	6%
COc1ccccc1NS(=O)(=O)c1cccc(C(=O)NC2CCN(Cc3ccccc3)CC2)c1	.	.	9.9	2	.
O=C(NCCc1ccncc1)Nc1ccccc1Cl	13	1	1.6	-5	-4%

Further results follow:
SMILES	Arbovirus anti	YopH inh	RecA intein inh	Mtb betalactam	Mtb growth	others
Cn1nccc1C(=O)N1CCc2c([nH]c3ccccc23)C1c1ccc(F)cc1 (stereo not drawn)	-8	.	2.9	-3	-6%
COCC(C)n1c(C)cc(C(=O)COC(=O)c2ccc(N3CCCC3=O)cc2)c1C (stereo not drawn)	-1	-23	-0.7	?	6%
COc1cc(/C=C/c2nc(N)nc(-c3ccccc3O)n2)cc(OC)c1OC	8	-17	0.3	-4	-2%
NC(=O)c1ccc(NS(=O)(=O)c2ccccc2F)cc1	11	-31	-1.5	-3	5%
COC(=O)c1ccc(NC(=O)c2snnc2-c2ccccc2)cc1	2	.	0.6	1	1%
CCOC(=O)c1c(C)n(C)c2ccc(O)c(CN3CCN(C)CC3)c12	4	-10	.	-2	-12%
Cc1c(C(=O)NC2CCS(=O)(=O)C2)oc2ccccc12 (stereo not drawn)	.	.	-0.9	-6	.
CCN(CC(=O)NC(=O)NCc1ccco1)Cc1ccccc1	.	.	1.2	-2	.
Cc1ccc(/C=C/C(=O)N2CC(C)CC(C)C2)o1 (stereo not drawn)	-4	13	3.5	96	16%
O=C(NCC1CCCO1)C(c1ccncc1)N(Cc1ccc(F)cc1)C(=O)CN1C(=O)c2ccccc2S1(=O)=O (stereo not drawn)	11	-41	1.9	-2	-6%
Cc1cc(C)c(NC(=O)c2cc(S(=O)(=O)N3CCOCC3)ccc2F)c(C)c1	.	.	-0.6	3	.
COC(=O)c1cc(=O)n(Cc2ccc3c(c2)OCO3)c(=Nc2ccccc2)s1	-18	-17	3.0	5	-14%	Arbovirus anti repeat=-10
CCCCCc1ccc(-c2cn(Cc3ccc([N+](=O)[O-])cc3)nn2)cc1	.	.	-3.0	-5	.
O=C(CN1CCN(c2ccccc2)CC1)N/N=C/c1cccc(F)c1	6	-22	-2.7	0	0%
Cc1ccc(S(=O)(=O)c2cc(C)cc(S(=O)(=O)Nc3ccc(C(=O)O)cc3)c2C)cc1	.	.	1.4	-9	.
O=C(NCc1ccc(F)cc1)Nc1cccc(Cl)c1	10	.	-2.5	-7	5%
O=C(Nc1cccc(NC(=O)c2cccnc2Cl)c1)c1ccco1	-6	38	-0.1	-13	-1%
Cc1cc(C)n(C(=O)/C(C#N)=C/N(C)C)n1	8	.	1.3	-2	.
Cc1ccc(-n2ncc3c2ncn2nc(-c4ccco4)nc32)c(C)c1	-12	-27	-1.6	4	-2%
COC(=O)Cc1nc(Nc2ccccc2)sc1C	.	.	0.2	-5	-1%
COc1ccc(C(C)(C)C)cc1NC(=O)c1ccoc1C	0	-36	3.1	-11	2%
CCOC(=O)c1cnc(-c2ccccc2)nc1C(F)(F)F	-4	.	-0.8	-4	6%
COCCN(C(=O)C1CCC1)c1nnc(-c2cccnc2)s1	4	-15	.	-4	2%
COc1ccc(OC)c(Nc2nc3nonc3nc2N2CCCCC2)c1	-5	1	0.7	4	.
Cn1c(=O)c2c(ncn2CCC(=O)N/N=C/c2ccncc2)n(C)c1=O	.	.	-0.7	-13	-9%
N#C/C(=C\c1ccc([N+](=O)[O-])cc1)C(=O)NCCCn1ccnc1	.	.	0.8	-11	3%
O=c1oc(-c2ccccc2[N+](=O)[O-])nc2ccccc12	7	-28	3.0	96	0%
Cc1nonc1C(=O)N/N=C/c1ccncc1	1	.	-2.4	4	4%
O=C(NCc1cccs1)c1ccc(CS(=O)Cc2cccc(Cl)c2)o1 (stereo not drawn)	.	.	-1.8	3	.
CCOc1ccc(OCCCC(=O)N2CCN(S(=O)(=O)c3ccc(Cl)cc3)CC2)cc1	.	.	-0.1	-6	.
CCN(C(=O)Cn1nc(C(=O)O)c2ccccc2c1=O)C1CCCCC1	3	.	-0.2	-8	4%
COc1ccccc1OCC(=O)Nc1nnc(C2CCCC2)s1	.	.	-1.8	2	.
CCCS(=O)(=O)c1nc(S(=O)(=O)c2ccc(C)cc2)c(N2CC(C)OC(C)C2)s1 (stereo not drawn)	.	.	0.4	-3	.
CC(Sc1nnc(Cc2ccc3c(c2)OCO3)o1)C(N)=O (stereo not drawn)	5	.	-2.4	0	2%
CCc1ccc(NC(=O)C(C)Oc2nnc(-c3cccs3)c(-c3cccs3)n2)cc1 (stereo not drawn)	-15	-35	13	7	9%
C/C(=N/OC(=O)c1cccc(C(F)(F)F)c1)c1cnccn1	2	.	-0.1	-2	-2%
COc1nccnc1NS(=O)(=O)c1ccc(NC(=S)NC(=O)/C=C/c2ccccc2)cc1	-2	-13	1.5	2	-5%
O=c1sc(/C=N/Nc2ccccc2)c(Cl)n1Cc1ccccc1	-10	-1	6.3	1	31%
Cc1ccc2cccc(OCCCOc3ccccc3CO)c2n1	.	.	3.8	6	.
O=[N+]([O-])c1ccc(OCC(O)CN(CCO)CCO)cc1 (stereo not drawn)	8	-18	-1.8	-3	-6%
COc1cc(C(=O)Nc2ccc(S(=O)(=O)N(C)c3ccccc3)cc2)cc(OC)c1OC	-12	-32	9.4	8	8%
O=C(Cc1c(F)cccc1Cl)NCc1cccnc1	.	.	-0.6	-3	.
Cc1nc2ncnn2c(N2CCC(C(=O)NC3CCCC3)CC2)c1Cc1ccccc1	2	5	-6.2	-8	-1%
Cc1ccc2oc(=O)c3cc(C(=O)N4CCN(C)CC4)sc3c2c1	.	.	1.1	-4	4%
CCOC(=O)CSc1nnc(Cn2nnc(-c3ccccc3)n2)n1CC	3	-1	.	0	10%
Cn1nc(C(=O)N2CCOCC2)c2ccccc2c1=O	.	-8	-1.3	?	2%
CCCc1cc(=O)[nH]c(SCC(=O)Nc2cc3c(cc2C(C)=O)OCO3)n1	4	-91	-1.6	93	-6%
O=C(CSc1nnc(SCc2ccccc2)s1)NNC(=S)Nc1ccccc1	10	-27	7.1	6	-2%
CCCCCNC(=O)C(C#N)c1nc2ccccc2nc1N1CCCC1 (stereo not drawn)	-3	-23	-43	3	4%
COc1cc(C(=O)N/C(=C\c2cn(C)c3ccccc23)C(=O)NCCCn2ccnc2)cc(OC)c1OC	.	.	0.0	1	.

5 entries out of the list, sorted by length of the SMILES, rising:
SMILES	Arbovirus anti	YopH inh	RecA intein inh	Mtb betalactam	Mtb growth	others
Cn1nc(C(=O)N2CCOCC2)c2ccccc2c1=O	.	-8	-1.3	?	2%
CC1Cc2ccccc2N1CC(=O)Nc1cccc(S(N)(=O)=O)c1 (stereo not drawn)	19	.	-2.1	-2	-2%
N#C/C(=C\c1ccc([N+](=O)[O-])cc1)C(=O)NCCCn1ccnc1	.	.	0.8	-11	3%
CS(=O)(=O)N1CCN(C(=O)c2cc(-c3cccnc3)nc3ccc(Br)cc23)CC1	-1	.	.	-2	2%
COc1cc(C(=O)N/C(=C\c2cn(C)c3ccccc23)C(=O)NCCCn2ccnc2)cc(OC)c1OC	.	.	0.0	1	.

Following part
SMILES	Arbovirus anti	YopH inh	RecA intein inh	Mtb betalactam	Mtb growth	others
CN1CCN(c2ccc(CNS(=O)(=O)c3ccc(F)cc3Cl)cc2)CC1	.	.	0.7	-4	.
Cc1nn(CC(=O)NCCc2ccc(Cl)cc2)c(C)c1[N+](=O)[O-]	-1	-25	2.3	-1	-3%
Cc1cc(C(=O)N2CCN(C(=O)c3ccco3)CC2)ccc1[N+](=O)[O-]	6	.	-4.0	-7	6%
NC1=NC[C@H](c2ccccc2)N1CCc1cccc(F)c1	.	.	1.1	-10	-4%
CCn1c(C)nnc1SCC(=O)NC1CCCC1	.	.	-5.4	-2	.
O=C(Oc1ccccc1)c1ccc(-n2cnnn2)cc1	8	-1	-1.8	4	8%
CCc1nc(SCC(=O)N2CCc3cc(OC)c(OC)cc3C2)c(C#N)cc1C	.	-13	3.1	-10	-7%
CC1C(c2cccs2)=[N+]([O-])C(C)(C(=O)c2ccc(Cl)cc2)N1O (stereo not drawn)	.	-49	.	-11	.
Cc1cc(NC(=O)CCC(=O)N(CCC(C)C)CC(=O)NCC2CCCO2)no1 (stereo not drawn)	0	-18	-0.4	-2	-1%
CCOc1ccccc1-c1n[nH]c(=S)o1	1	-20	0.5	-6	7%
COc1ccccc1OCC(=O)NCCCn1ccnc1	6	.	0.4	0	-8%
CCN(CC)C(=O)CN(c1cccc([N+](=O)[O-])c1)S(=O)(=O)c1ccccc1	3	.	0.0	-2	0%
Cc1ccc2c(c1C)OC(=O)CC2(C)C	-2	-18	-4.3	3	5%
Cc1ccc(C(=O)N2CCN(S(=O)(=O)N3CCOCC3)CC2)cc1	4	.	2.5	-8	3%
COc1ccc2nc(N3CCCC(C(=O)NCCCN4CCN(C)CC4)C3)sc2c1 (stereo not drawn)	-3	-48	0.7	36	-8%	Arbovirus anti repeat=5
C=CCn1c(SCc2ccc(OC)cc2)nnc1-c1cccnc1	12	-32	2.6	11	-6%
